Screens as filed in PubChem BioAssay.
INS promoter inh – TRM-6 insulin promoter activity inhibition | inhibition, % at 2 µM | TRM-6 cells (human fetal islet line), insulin promoter-eGFP reporter, imaging; reporter expression induced with tamoxifen | 0.9% of 130,000 active;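 active means inhibition above the mean plus 3 SD, with well images judged a real hit on visual review, cut at about 60% in these data, passing the limit was not always enough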
GALR2 ag – GALR2 (human) receptor agonism; 0.48% of 140,000 active; GALR2-expressing cells, agonist activation read-out; O43603; AID 803; activation, %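 (tested at 5 µM)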;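 active means above mean plus 3 SD of all compounds, about 5% in these data, not always enough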;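 further: 0% = vehicle buffer wells and 100% = reference agonist at full effect; tested in CHO reporter cells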
Target sequence (O43603 whole entry, looked up): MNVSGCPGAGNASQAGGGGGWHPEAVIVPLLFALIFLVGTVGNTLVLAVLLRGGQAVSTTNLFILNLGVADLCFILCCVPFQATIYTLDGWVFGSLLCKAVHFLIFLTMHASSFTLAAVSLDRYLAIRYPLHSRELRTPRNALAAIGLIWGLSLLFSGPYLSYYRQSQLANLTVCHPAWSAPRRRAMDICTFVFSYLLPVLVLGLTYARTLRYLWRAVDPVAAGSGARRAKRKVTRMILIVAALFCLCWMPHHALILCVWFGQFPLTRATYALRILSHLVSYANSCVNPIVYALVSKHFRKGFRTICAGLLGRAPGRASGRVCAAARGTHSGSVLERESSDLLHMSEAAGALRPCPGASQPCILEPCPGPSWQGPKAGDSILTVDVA
PKD1 inh – inhibitors of human PKD1 kinase; PKD1 kinase fluorescence polarization assay; inhibition, %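 (about 10 µM by stock and volumes)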; 0.056% of 200,000 active; AID 797;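 active means inhibition of 50% or more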;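 further: controls were vehicle for no effect and a reference inhibitor for full effect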
RGS16-Gao HTS – regulators of human RGS16-Galphao interaction. O15492+P09471. bead-based flow cytometry RGS16-Galphao binding, fluorescence; actives lie on both sides. 0.38% of 220,000 active. binding response (% of control), % at 10 µM;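 active means below 25% or above 175%, edge rows of some plates excepted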;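 further: Galphao activated by GDP with aluminum fluoride before binding; 100% = wells without compound and 0% = beads without RGS; some results beyond the cut were filed as inactive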
Target sequence (O15492 whole entry, looked up): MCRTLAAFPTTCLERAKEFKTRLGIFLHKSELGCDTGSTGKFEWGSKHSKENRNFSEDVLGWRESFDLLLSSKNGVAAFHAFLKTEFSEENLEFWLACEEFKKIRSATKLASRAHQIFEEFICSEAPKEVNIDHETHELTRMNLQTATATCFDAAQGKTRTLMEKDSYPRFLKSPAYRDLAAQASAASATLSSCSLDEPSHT
Target sequence (P09471 whole entry, looked up): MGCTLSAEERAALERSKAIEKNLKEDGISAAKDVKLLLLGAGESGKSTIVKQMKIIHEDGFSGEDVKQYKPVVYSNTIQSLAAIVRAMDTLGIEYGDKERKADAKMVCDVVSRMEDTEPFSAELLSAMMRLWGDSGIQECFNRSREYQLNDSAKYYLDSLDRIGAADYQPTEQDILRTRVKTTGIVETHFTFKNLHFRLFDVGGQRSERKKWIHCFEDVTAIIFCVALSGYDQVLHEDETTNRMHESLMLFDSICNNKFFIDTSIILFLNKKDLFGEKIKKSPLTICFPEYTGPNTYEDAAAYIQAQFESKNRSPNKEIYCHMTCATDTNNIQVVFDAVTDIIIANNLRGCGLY
HSV replic up – HSV replication enhancement; maximum fold increase; 0.005% of 220,000 active; AID 1956; HSV replication augmentation in cells, fold increase;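 active means peak rise of 1.5-fold or more in the series; tested in PC3 cells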;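 further: first round at 10 µM; read as green reporter fluorescence; hits show the peak of a series up to 25 µM; 1 = signal of infected wells without compound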
INS promoter inh cell count – further read-out of INS promoter inh, marked with its call; normalized cell count, %; measured here: cell count, toxicity; reference of the scale not given here;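 cells exposed to compound for 48 h; stained nuclei by imaging scaled within each plate; lower means fewer cells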
HSV replic up primary fold – second read-out of HSV replic up, no call of its own (marks repeat the call); fold increase; compound at 10 µM; measured here: primary screen fold increase 10 uM; tested in PC3 cells;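 GFP signal in the first replicate; 1 = infected wells without compound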
* hit, by the source's call; i = inactive; / = no result given. Rows are unselected. Share with any hit: about 1.3%.

SMILES	INS promoter inh	INS promoter inh cell count	GALR2 ag	PKD1 inh	RGS16-Gao HTS	HSV replic up	HSV replic up primary fold
CC1(C)CC2CC(C)(CN2CC(=O)C(C#N)c2ccccc2)C1 (centres undefined)	/	/	-1.8	4.5	102.8	i	0.81
Nc1nnc(CC2=CCCCC2)s1	-221.1	135.1	-3.7	-2.1	88.8	i	0.99
CCN(CC)c1ccc(/C=C2/SC(=O)N(C(C)C)C2=O)o1	/	/	2.5	1.2	93.1	i	0.55
COc1ccc(-n2c(C)cc(/C=N/Nc3nc(N4CCOCC4)nc(N4CCOCC4)n3)c2C)cc1	5.1	75.2	-0.4	-8.0	96.9	i	1.04
COc1ccc(NC(=O)NC(C)(C(F)(F)F)C(F)(F)F)cc1	23.3	147.2	-1.8	1.5	101.7	i	0.81
c1ccc(CN2CCN(C3=Nc4cccc5cccc3c45)CC2)cc1	-35.1	67.5	-2.7	2.8	91.3	/	/
Cc1cccc(-n2nc(C(=O)c3ccco3)cc(-c3nc4ccccc4[nH]3)c2=N)c1	30.2	90.9	-0.1	-5.2	118.7	i	1.25
CCc1cc2c(N3CCN(c4nnc(CC)s4)CC3)ncnc2s1	15.2	121.0	0.2	-4.2	101.8	i	0.74
O=C(/C=C/c1ccc(F)cc1)NC(=S)N1CCCCC1c1cccnc1 (centres undefined)	/	/	/	/	89.8	i	0.97
N#C/C(C(=O)c1ccccc1)=C1/SC=C(N)N1c1ccccc1	-294.3	90.6	-0.6	-8.6	105.7	i	1.2
COc1ccc(S(=O)(=O)Nc2nc3ccccc3nc2NCc2ccc3c(c2)OCO3)cc1	22.6	89.3	-0.9	1.1	101.0	i	0.93
Cc1ccc(N2CCN(c3ccc(NC(=O)CCC(=O)O)cc3)CC2)cc1	73.3*	153.7*	-2.4	-1.0	85.5	i	1.06
Cc1c(NC(=O)C(=O)N/N=C/c2cccs2)c(=O)n(-c2ccccc2)n1C	/	/	/	/	95.1	i	0.92
CC1=C(Cl)C2=NS(=O)(=O)CCN2C=C1Cl	/	/	/	1.3	97.8	i	0.89
CCOc1cc(/C=N\NC(N)=O)cc(Br)c1OC(C)C	11.5	91.8	-1.0	-7.7	111.5	i	0.89
O=C(O)c1cc([N+](=O)[O-])ccc1N1CCCCC1	-15.4	108.8	-1.4	-7.3	101.0	i	1.03
COc1ccc(C(=O)/C=C(\C)Nc2ccc(NC(C)=O)cc2)cc1	-16.7	125.3	-2.3	12.4	95.5	i	0.71
O=C(/C=C/c1cccc(Cl)c1)NCCc1ccccc1	-45.5	103.6	-0.7	4.3	103.4	i	1.01
CCC(Sc1nc(-c2ccccc2)cc(=O)[nH]1)C(=O)O (centres undefined)	28.6	112.3	-1.2	-5.1	100.9	i	0.7
CN(C)CCC(=O)c1cccc(Br)c1	/	/	/	-8.2	93.5	i	0.8
CCCOCC(O)CCc1n[nH]c(=S)n1-c1ccccc1 (centres undefined)	28.6	104.7	/	2.5	110.1	i	0.76
CC1(C)CC(=O)C(C=N)=C(O)C1	-3.7	95.8	-1.3	3.7	100.7	i	0.91
COc1ccccc1NC(=S)N1CCN(c2nc(-c3ccccc3)cs2)CC1	/	/	/	-8.6	105.3	i	0.94
CCOc1ncccc1C(=O)OCC(=O)N1CC(=O)Nc2ccccc21	/	/	-0.7	7.1	98.5	i	0.78
C=C(C)COc1ccc(-c2nc(N)ncc2-c2ccc(OC)cc2)c(O)c1	16.2	78.7	-0.6	2.4	98.8	i	1.08
O=C(Nc1ccccc1)N1CCN(c2ccccn2)CC1	31.7	93.8	-0.9	-4.3	100.7	i	1.03
COC(=O)C1=NN(c2ccc(C)cc2)C2C(=O)N(c3ccccc3OC)C(=O)C12 (centres undefined)	/	/	/	/	97.0	i	0.92
O=C(/C=C/c1ccc(Cl)c(Cl)c1)NCc1ccco1	7.9	173.1	-1.5	-10.9	99.6	i	0.91
COC(=O)/C(C#N)=C/N(C)C	/	/	/	/	95.8	i	0.79
O=C(COC(=O)c1c(Cl)ccc(Cl)c1Cl)NC1CCS(=O)(=O)C1 (centres undefined)	/	/	/	-3.4	104.2	i	1.09
CC(=O)Nc1ccc(-n2nnnc2SCC(=O)Nc2cccc(NC(=O)c3ccco3)c2)cc1	/	/	/	/	101.2	i	1.06
C=CCOc1ccn(C)c(=O)n1	/	/	/	/	115.0	i	0.96
CN(c1ccc(C(=O)Nc2ccccc2Sc2ccccc2)cc1)S(C)(=O)=O	-21.4	107.1	-1.5	1.5	126.4	i	0.89
CC(=O)NC(=S)Nc1sc2c(c1C#N)CCCCC2	/	/	-2.6	-10.6	112.8	i	0.96
OCCNc1nc(Nc2ccc(Br)cc2)nc2ccccc12	64.3	139.1	/	-8.2	102.1	i	0.72
O=C(Nc1cccc2ccccc12)NC1Cc2ccccc2C1	/	/	/	/	101.7	i	1.27
CC1(C)C=C(c2ccc(O)cc2)CC(C)(C)N1	63.6	96.8	-0.2	2.6	107.2	i	0.81
CS(=O)(=O)c1nsc2nc(=O)c(/C=C3\C=Nc4ccccc43)c(N)n12	7.1	96.9	/	2.5	112.7	i	1.01
CC(C)Cn1cc(Cl)c(=O)n(CC(C)C)c1=O	/	/	/	-1.9	109.2	i	1
Cn1c(SCc2ccc3c(c2)OCO3)nnc1-c1ccccc1	-43.2	154.3	-1.7	7.0	101.2	i	0.96
Cn1c(Cn2nnc(-c3ccccc3)n2)nnc1SCc1ccccc1Cl	15.6	109.8	-2.2	0.8	99.8	i	1.06
S=C(NCCCN1CCOCC1)Nc1ccc(Nc2ccccc2)cc1	35.3	123.1	/	-0.5	97.3	i	1.07
O=Cc1cccc(Oc2ccc([N+](=O)[O-])cc2[N+](=O)[O-])c1	/	/	/	3.6	96.9	i	0.67
COc1ccc(C(=O)NCc2nnc(SCC(=O)N3CCOCC3)o2)cc1	/	/	/	-5.1	100.8	i	0.96
COc1ccc(Br)cc1CN(C)CC(=O)Nc1c(Cl)cccc1Cl	/	/	0.0	0.9	101.3	i	1.07
O=C1N=C(N2CCCC2)S/C1=C\C=C\c1ccccc1	/	/	/	/	104.3	i	0.93
C[n+]1cccc(C2C(C#N)=C(N)Oc3c2ccc2ccccc32)c1 (centres undefined)	/	/	/	/	94.0	i	0.98
O=C(CCc1ccccn1)NC1CCCc2c1cnn2-c1ccc(F)cc1F (centres undefined)	/	/	/	-2.8	104.8	i	0.96
Nc1nc(CSC(=S)N2CCN(c3ccccc3)CC2)nc(Nc2ccc(F)cc2)n1	6.2	175.1	0.0	-2.0	119.4	i	0.92
Cc1ccc(CCNC(=O)C2CCCN(S(=O)(=O)c3cnc[nH]3)C2)cc1 (centres undefined)	/	/	-1.3	-6.2	92.5	i	0.96
(cont.)
SMILES	INS promoter inh	INS promoter inh cell count	GALR2 ag	PKD1 inh	RGS16-Gao HTS	HSV replic up	HSV replic up primary fold
C=C(C)C(=O)O[C@H]1C/C(C)=C\C(=O)/C=C(\C)[C@H](O)[C@@H]2OC(=O)C(=C)[C@@H]21	/	/	/	/	99.0	i	0.52
CCCc1[nH]c(=O)c(C#N)c2c1CCCC2	-57.9	70.8	-1.5	-5.0	101.9	i	0.97
CN1CCN(C(=O)C2CCN(S(=O)(=O)c3cnc[nH]3)CC2)CC1	/	/	-1.0	-3.1	101.2	i	1.05
C/C(=C\C(=O)Nc1cscc1C)C(=O)O	/	/	/	/	106.0	i	1.11
COc1ccc2c3c(c(=O)oc2c1OCC(=O)C(C)(C)C)CCCC3	-62.5	139.0	-1.5	-9.4	114.6	i	0.86
Cn1c(SCc2ccccc2Cl)nc(C(F)(F)F)cc1=O	-26.1	88.0	-3.0	10.4	98.5	i	0.96
Cc1nc2sc3c(c2c(=N)n1N)CCCC3	/	/	/	-7.4	99.1	i	0.85
CCc1ccccc1NC(=S)N1CCC(NC(=O)c2ccc(OC)cc2)CC1	-50.0	68.1	/	-2.2	181.1	i	0.97
O=C1c2ccccc2C(=O)N1c1n[nH]c(CCc2ccccc2)n1	37.5	130.5	-1.3	1.6	94.0	i	1
Cc1cccc2c1CC(C)(C)N=C2C1=C(O)CC(C)(C)CC1=O	5.7	49.2	-1.2	0.7	109.4	i	0.82

A draw from above in order of length of the SMILES, low to high.
SMILES	INS promoter inh	INS promoter inh cell count	GALR2 ag	PKD1 inh	RGS16-Gao HTS	HSV replic up	HSV replic up primary fold
C/C(=C\C(=O)Nc1cscc1C)C(=O)O	/	/	/	/	106.0	i	1.11
Cc1cccc2c1CC(C)(C)N=C2C1=C(O)CC(C)(C)CC1=O	5.7	49.2	-1.2	0.7	109.4	i	0.82
CN1CCN(C(=O)C2CCN(S(=O)(=O)c3cnc[nH]3)CC2)CC1	/	/	-1.0	-3.1	101.2	i	1.05

Additional compounds:
SMILES	INS promoter inh	INS promoter inh cell count	GALR2 ag	PKD1 inh	RGS16-Gao HTS	HSV replic up	HSV replic up primary fold
Cc1nccn1CCC(=O)Nc1ccc(Cl)cc1	-26.7	82.0	/	-7.0	103.2	i	1.15
Cc1ccc(C)n1-c1ccc(N(C)C)cc1	-215.4	66.1	/	-0.1	73.1	/	/
O=C(O)c1cccc(C(=O)c2cccc(C(=O)O)c2)c1	/	/	/	-8.6	105.8	i	1.01
COc1ccc(N(CC(=O)N/N=C/c2cc3ccc(OC)cc3nc2Cl)S(=O)(=O)c2ccccc2)cc1	-3.7	61.4	-1.1	4.8	98.2	i	1.04
CCC(C(=O)N1CCN(c2ccccc2OC)CC1)c1ccccc1 (centres undefined)	-38.5	98.8	-0.8	-3.0	104.7	i	0.79
CC(=O)Nc1nnc(CSCc2ccc(F)cc2)s1	/	/	/	/	98.8	i	0.93
CCCCCCn1c(O)c(/C=C2\C=NN=C2c2ccccc2)sc1=S	/	/	-0.2	-6.4	92.7	i	0.86
O=C(CC1C(=O)NCCN1CC1CCCCC1)NCc1ccc(F)cc1F (centres undefined)	/	/	/	-0.4	96.4	i	0.97
CCOC(=O)N1CCC(NC(=O)C2CCC(Cn3c(=O)[nH]c4ccccc4c3=O)CC2)CC1 (centres undefined)	32.3	143.7	-7.3	-10.0	/	/	/
c1ccc(N2CCN(c3nnnn3-c3ccccc3)CC2)cc1	-4.3	57.8	-0.7	-6.5	104.2	i	1.06
CCC1CCCCN1C(=S)Nc1ccc(OC(F)F)cc1 (centres undefined)	9.4	99.1	-2.6	-2.0	107.2	i	0.97
O=C(O)CC/C(=N\NC(=O)CNC(=O)c1cccc(Cl)c1)c1ccccc1	36.4	91.0	/	2.1	56.2	i	0.85
COc1ccc(-n2nnc3c(=O)n(CC(=O)N4CCC(C)CC4)cnc32)cc1	/	/	-0.2	-18.7	101.9	i	0.84
CCCC(=NCCc1c(C)[nH]c2ccccc12)C1=C(O)CC(c2ccccc2)CC1=O (centres undefined)	-81.2	76.2	0.1	-0.1	106.1	i	0.67
CC(C)(C)c1cnnn1-c1ccc(C=O)cc1	66.7	95.6	-1.4	-5.4	108.7	i	1.06
Cc1c(Br)c([N+](=O)[O-])nn1CC(=O)N(C)Cc1ccccc1	/	/	/	-12.7	108.0	i	1.02

Molecules listed so far that contain a Cl atom:
SMILES	INS promoter inh	INS promoter inh cell count	GALR2 ag	PKD1 inh	RGS16-Gao HTS	HSV replic up	HSV replic up primary fold
CC1=C(Cl)C2=NS(=O)(=O)CCN2C=C1Cl	/	/	/	1.3	97.8	i	0.89
O=C(/C=C/c1cccc(Cl)c1)NCCc1ccccc1	-45.5	103.6	-0.7	4.3	103.4	i	1.01
O=C(/C=C/c1ccc(Cl)c(Cl)c1)NCc1ccco1	7.9	173.1	-1.5	-10.9	99.6	i	0.91
O=C(COC(=O)c1c(Cl)ccc(Cl)c1Cl)NC1CCS(=O)(=O)C1 (centres undefined)	/	/	/	-3.4	104.2	i	1.09
CC(C)Cn1cc(Cl)c(=O)n(CC(C)C)c1=O	/	/	/	-1.9	109.2	i	1
Cn1c(Cn2nnc(-c3ccccc3)n2)nnc1SCc1ccccc1Cl	15.6	109.8	-2.2	0.8	99.8	i	1.06
COc1ccc(Br)cc1CN(C)CC(=O)Nc1c(Cl)cccc1Cl	/	/	0.0	0.9	101.3	i	1.07
Cn1c(SCc2ccccc2Cl)nc(C(F)(F)F)cc1=O	-26.1	88.0	-3.0	10.4	98.5	i	0.96
Cc1nccn1CCC(=O)Nc1ccc(Cl)cc1	-26.7	82.0	/	-7.0	103.2	i	1.15
COc1ccc(N(CC(=O)N/N=C/c2cc3ccc(OC)cc3nc2Cl)S(=O)(=O)c2ccccc2)cc1	-3.7	61.4	-1.1	4.8	98.2	i	1.04
O=C(O)CC/C(=N\NC(=O)CNC(=O)c1cccc(Cl)c1)c1ccccc1	36.4	91.0	/	2.1	56.2	i	0.85
